# Compound activity as filed in PubChem BioAssay.
# HPGD inh: inhibitors of human 15-hydroxyprostaglandin dehydrogenase (HPGD); P15428; purified HPGD, NADH fluorescence kinetic, PGE2 substrate; Potency, µM, for the others: at the highest dose activity change, negative = inhibition, hits mostly inhibitors; hit rate 4.3% among 150,000; active = well fitted inhibition curve with a large enough effect (not every such curve was filed as active); inconclusive = small, poorly fitted or top-dose-only effect, or another doubt; inactive = no such curve, though single readings can be large or run the other way;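 further: top concentration of the series not given in the record; plate controls included wells without enzyme; inactives centre near -10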
# Target sequence (P15428 whole entry, looked up): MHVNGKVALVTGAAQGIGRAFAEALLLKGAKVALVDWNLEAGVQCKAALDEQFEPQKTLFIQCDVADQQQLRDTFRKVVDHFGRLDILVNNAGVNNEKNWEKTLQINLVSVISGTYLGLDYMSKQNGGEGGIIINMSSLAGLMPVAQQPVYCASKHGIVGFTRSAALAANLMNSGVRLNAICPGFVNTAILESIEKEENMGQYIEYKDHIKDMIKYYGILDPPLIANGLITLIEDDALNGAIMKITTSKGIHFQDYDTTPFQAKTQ
#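 20 nM HPGD preincubated 15 min at room temperature with compound in 50 mM Tris-HCl pH 8, 0.01% Tween 20. Started with 1 mM NAD+ and 30 uM prostaglandin E2; NADH fluorescence (360/450 nm) read 5 times over 30-s intervals, last minus first.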
# * hit, by the source's call; u = inconclusive; & = joins results of further samples; [ ] = remark or other dose. On the % scale 0 is the no-effect control and ±100 the full control effect; potency means the concentration at half of the fitted maximal effect. Some of the compounds tested; the hit share may differ from the screen's.
SMILES,HPGD inh
CC1(C(=O)NCC2CC2)C=CC2(CCCCC2)N1C(=O)c1ccccc1 (stereo not drawn),-8%
COc1ccc(OC)c(NC(=O)C2CCN(S(=O)(=O)c3cccs3)CC2)c1,-8%
Cc1ccccc1-n1nnnc1SCC(N)=O,-16%
CCN(c1ccccc1)S(=O)(=O)c1ccc(OCC(=O)Nc2cc(C)on2)cc1,-8%
CCOC(=O)C1=C(C)N=C2SC(C)C(=O)N2C1c1ccc(OC(C)=O)c(OCC)c1 (stereo not drawn),-1%
CCOC(=O)CSC1=C(C#N)C(c2ccc(OC)cc2)C2=C(CC(C)(C)CC2=O)N1 (stereo not drawn),u
C=CCc1ccc(OCCOCCOc2ccc(C)cc2[N+](=O)[O-])c(OC)c1,u
COc1ccccc1N1CCN(C(=O)CSc2nc3ccccc3[nH]2)CC1,-3%
O=C(CSc1nnnn1-c1ccc(Cl)cc1)NNC(=O)c1ccc([N+](=O)[O-])cc1,-7%
COc1ccc(OCc2cccc(C(=O)N3CCCC3)c2)cc1,-28%
O=C(NCC(=O)N(Cc1ccccc1)C(C(=O)NC1CCCCC1)c1ccco1)c1ccco1 (stereo not drawn),-5%
O=C(Nc1cccc2ccccc12)c1onc2c1CCCC2,38%[activator]
O=[N+]([O-])c1ccc(NC(=S)N2CCOCC2)cc1,-12%
CC(=O)c1cccc(NC(=O)c2ccco2)c1,-3%
COc1ccc(N(CC(=O)NCCSc2ccccn2)S(C)(=O)=O)cc1Cl,-10%
CSc1nnc(-c2sccc2OCc2ccc(C)cc2)n1C,-2%
CC(=O)Nc1ccc(/C(C)=N/NC(=O)CN(c2ccccc2Br)S(C)(=O)=O)cc1,-4%
O=C(c1cc2n(n1)C(C(F)(F)F)CC(c1ccco1)N2)N1CCN(c2ccccn2)CC1 (stereo not drawn),-12%
O=C(Nc1ccc(C(=O)N2CCCC2)cc1)c1ccccc1F,3.2µM*
COc1ccc(C(=O)NC(=S)Nc2ccc(NC(=O)c3ccco3)cc2)cc1[N+](=O)[O-],-7%
CC(C)C(=O)Nc1cc(C(F)(F)F)ccc1N1CCOCC1,0%
CCCCCC(=O)NNC(=O)c1ccc(F)cc1,0%
O=C(CCNS(=O)(=O)c1ccccc1C(F)(F)F)NCc1ccc2c(c1)OCO2,1%
COc1ccc(-c2nc(C3CCCCC3)no2)cc1OC,u
Cc1ccccc1NC(=O)C1CCCN1C(=O)NC1CCCCC1 (stereo not drawn),4%
Cc1ccc(C)c(OCCn2cc(/C=C(\C#N)C(=O)NCc3cccs3)c3ccccc32)c1,-8%
CCS(=O)(=O)c1ccc(NC(=O)c2ccccc2Cl)c(O)c1,-20%
Cc1nnc(SCC2=C(C(=O)O)N3C(=O)[C@@H](NC(=O)Cn4cnnn4)[C@@H]3SC2)s1,-9%
O=C(CCCN1C(=O)/C(=C/c2ccccc2Cl)SC1=S)Nc1ccccn1,16µM*
Cc1cccc(N2C(=O)CC(N3CCOCC3)C2=O)c1 (stereo not drawn),7%
N=c1n(CCO)c2ccccc2n1CCOc1ccccc1,-4%
CC(C)c1ccc2oc(=O)cc(CN3CCN(c4ccccc4)CC3)c2c1,-11%
CC(=O)N1CCN(c2ccc(NC(=O)c3ccc(C)cc3)cc2)CC1,u
COc1cccc(Nc2nc(N)nc(C(F)(F)F)n2)c1,-8%
O=C(COC(=O)c1ccc2c(c1)OCO2)Nc1ncc(Cl)cc1Cl,-19%
CN(C)c1ncc2ncc(=O)n(CCC#N)c2n1,u

# Pulled one by one from above:
SMILES,HPGD inh
Cc1ccccc1NC(=O)C1CCCN1C(=O)NC1CCCCC1 (stereo not drawn),4%
COc1cccc(Nc2nc(N)nc(C(F)(F)F)n2)c1,-8%

# Following part:
SMILES,HPGD inh
O=[N+]([O-])c1ccc(/C=N\N2CCN(c3ccc(Cl)cc3)CC2)cc1,-12%
Cc1cc(N2CCOCC2)nc(NCc2ccccc2)n1,-11%
O=C(O)Cc1ccc(-c2ccccc2)cc1,-19%&-10%
Cc1c(C(c2cccc([N+](=O)[O-])c2O)c2c(C)n(C)n(-c3ccccc3)c2=O)c(=O)n(-c2ccccc2)n1C,-1%
COc1ccc(N(CC(=O)NCc2ccco2)S(C)(=O)=O)cc1,-7%
COc1ccc(C(=O)OCC(=O)NC(C)(C)C)cc1[N+](=O)[O-],-12%
COc1cc(CC(=O)Nc2sccc2C(N)=O)cc(OC)c1OC,-16%
O=C(CCC(=O)N(CC(=O)NC1CCCCC1)c1ccc2c(c1)OCO2)Nc1ccccn1,-5%
COc1ccc(/C(O)=C2\C(=O)C(=O)N(CCN3CCOCC3)C2c2ccccc2OC)cc1 (stereo not drawn),-2%
CC(C)(C)C1CCC(OC(=O)c2ccncc2)CC1 (stereo not drawn),-13%
CC(=NCc1ccco1)c1c(O)n(C2CCCCC2)c(=O)[nH]c1=O,-15%
COc1ccc(C(=O)NCc2nnc(SCC(=O)Nc3nc4ccc(C)cc4s3)o2)cc1OC,-19%
Cn1nc(C(=O)NCC2CCCO2)c2ccccc2c1=O (stereo not drawn),-2%
O=C(CNC(=O)C1CCCCC1)OCc1cc(=O)oc2ccc3ccccc3c12,u
Cc1cc2c(C)nc(N/N=C/c3ccccc3)nc2o1,-8%
CCOC(=O)CCCSc1nnc(CCCCCN2C(=O)c3cccc4cccc(c34)C2=O)o1,u
CN(C)S(=O)(=O)N(CC(=O)Nc1ccccc1C(F)(F)F)c1ccccc1,-5%
O=C(CCl)Nc1ccccc1Sc1ccc(Cl)cc1,-11%
O=c1[nH]c2ccccc2nc1C(Cl)c1ccccc1 (stereo not drawn),u
O=C(N/N=C/C=C/c1ccccc1)c1n[nH]c2c1CCC2,-20%
COc1ccc(-n2c(C)c(C(C)=O)c(C(C)=O)c2C)cc1OC,-2%
COCCn1c(=O)c(-c2cccs2)nc2cnc(Oc3cccc(Cl)c3)nc21,u
COc1cccc(CNCC(=O)N2C(C)CCCC2C)c1 (stereo not drawn),-1%
Cc1c(N=C(N)/N=C(\N)Nc2ccccc2)c(=O)n(-c2ccccc2)n1C,-7%
O=S(=O)(NC1CC1)c1cccc(S(=O)(=O)N2CCCC2)c1,-6%
CCn1cc(C(=O)OCc2cccc(Br)c2)c(=O)c2ccc(C)nc21,-4%
CCCCc1cc2c(cn1)=C(OC(=O)c1ccco1)C(C)(OC(=O)CC)C(=O)C=2 (stereo not drawn),-13%
CCOC(=O)N1CCN(S(=O)(=O)c2cc(Br)cc3c2N(C(=O)C2CC2)CC3)CC1,-20%
Cn1c(CCNC(=O)c2ccccc2)nc2cc(NC(=O)C3CCCCC3)ccc21,-19%
COc1ccc(S(=O)(=O)N2CCC(C(=O)Nc3ccccc3C)CC2)c2cccnc12,-18%
O=[N+]([O-])c1ccc(Cl)c(CN2CCC(O)CC2)c1,-10%
CCCn1c(NC(=O)c2ccco2)nc2ccccc21,-11%
CN(C)c1nc(N(C)C)nc(N(C#N)CCOc2ccccc2)n1,-11%
CN(C)S(=O)(=O)c1ccc(C(=O)Nc2nc(-c3ccccc3)c(C(=O)c3ccccc3)s2)cc1,-26%
COC(=O)c1ccc(C(=O)OC)c(NC(=O)COC(=O)c2ccc(OC)c(OC)c2OC)c1,-25%
Cc1cccc(C)c1N(CC(O)Cn1c2ccccc2c2ccccc21)S(C)(=O)=O (stereo not drawn),u

# Sorted by formula weight (descending): part of the list above
SMILES,HPGD inh
COC(=O)c1ccc(C(=O)OC)c(NC(=O)COC(=O)c2ccc(OC)c(OC)c2OC)c1,-25%
CCn1cc(C(=O)OCc2cccc(Br)c2)c(=O)c2ccc(C)nc21,-4%
CCCn1c(NC(=O)c2ccco2)nc2ccccc21,-11%

# Remaining list, next part.
SMILES,HPGD inh
CCN(CCCNC(=O)C1CCCN(S(=O)(=O)CC)C1)c1cccc(C)c1 (stereo not drawn),-10%
CC(C)OC(=O)c1cccc(NC(=O)c2ccccc2)c1,-9%
CCOC(=O)c1[nH]c(C)c(C(=O)OCC(=O)N(CC)C2CCS(=O)(=O)C2)c1C (stereo not drawn),-14%
CC(=O)CC1OC(=O)C(Br)=C1NCc1ccccc1 (stereo not drawn),-10%
COc1ccccc1-c1nnc(SCC(=O)OC(C)C)o1,-1%
O=C(O)C1Cc2c([nH]c3ccccc23)C(c2ccc3c(c2)OCO3)N1 (stereo not drawn),-7%
CCOC(=O)CN1C(=O)C(Sc2n[nH]c(-c3ccc(O)cc3)n2)CCc2ccccc21 (stereo not drawn),-10%
COC(=O)c1ccccc1NC(=O)C(=O)NCC1CCCO1 (stereo not drawn),-6%
O=C(N/N=C/c1ccc(F)cc1)c1cc(-c2ccco2)nc2ccccc12,u
CN(C)c1cccc2c(S(=O)(=O)Nc3ccccn3)cccc12,-15%
Cc1ccc(S(=O)(=O)N2CCCCC2C(=O)NCc2ccco2)cc1 (stereo not drawn),-11%
COc1cccc(-n2nnc3c(=O)n(CC(=O)N4CCC(Cc5ccccc5)CC4)cnc32)c1,-25%

# Shown with tabs: entries from further up
Molecule	HPGD inh
O=C(N/N=C/c1ccc(F)cc1)c1cc(-c2ccco2)nc2ccccc12	u
CN(C)c1cccc2c(S(=O)(=O)Nc3ccccn3)cccc12	-15%

# New compounds follow.
SMILES,HPGD inh
Cc1cccc(C)c1NC(=O)c1cccc(COc2cc(Cl)ccc2Cl)c1,-19%
Cc1ccccc1OCCn1cc(/C=C(\C#N)C(=O)NCc2ccco2)c2ccccc21,-17%
O=C(CSc1nnc(-c2cccnc2)n1-c1ccccc1)N1CCN(c2ccc(F)cc2)CC1,-6%
Cc1ccc(NC(=O)CCC(=O)OC(C(=O)c2ccc(C)c(C)c2)c2ccccc2)c(C)c1 (stereo not drawn),-13%
CCNC(=O)CC1SC(=Nc2ccc(C)cc2)NC1=O (stereo not drawn),-17%
Cc1cccc(-c2nnc(SCc3ccccc3)o2)c1,u
CCOC(=O)N1CCN(C(=O)CN(c2cccc(C)c2)S(=O)(=O)c2ccccc2)CC1,1%
O=C(O)c1cc(C(F)(F)F)nc2ccccc12,-6%&4%
Cc1ccc(C)c(OCCn2c(=O)c3c(ncn3C3CCCC3)n(Cc3ccccc3)c2=O)c1,-10%
Cc1cc(C)c(S(=O)(=O)N2CCCOC2CNC(=O)C(=O)NCc2cccs2)c(C)c1 (stereo not drawn),-12%
Cc1ccc(NC(=S)NC2CCN(Cc3ccccc3)CC2)cc1,-8%
CC(C)CNC(=O)c1oc2ccccc2c1COc1ccccc1,-19%
O=C1c2ccsc2SCCN1Cc1c(Cl)cccc1Cl,-8%
O=C(Cn1nc(C(F)F)cc1C1CC1)NCCC1=CCCCC1,-6%
O=C(Nc1cccnc1)Nc1ccccn1,-8%
COc1ccc2c(C)cc(SCC(=O)Nc3nsc(-c4ccc(C)cc4)n3)nc2c1,-20%
COc1ccc(OC)c(NC(=O)c2cc3sccc3n2C)c1,-21%
COc1ccc(NC(=O)CSC2=C(C#N)C(c3ccco3)C3=C(CCCC3=O)N2)c(OC)c1 (stereo not drawn),u
Cc1csc(N(C(=O)c2cccc(S(=O)(=O)N3CCCC3)c2)c2ccccc2)n1,-16%
CCCCC1S/C(=N/N=C/c2cccs2)NC1=O (stereo not drawn),-8%
Cc1ccc(S(=O)(=O)N2CCCCC2)cc1C(=O)Nc1ncn[nH]1,-6%
Cc1ccc(NC(=O)CCNS(=O)(=O)c2ccc3c(c2)oc(=O)n3C)cc1C,-8%
COC(=O)c1cn(NC(=O)c2cnccn2)c(=O)c2ccccc12,-4%
CCc1ccc2nc(SCC(=O)N3CC(=O)Nc4ccccc43)c(C#N)cc2c1,-10%

# Taken from above:
# HPGD inh with COc1ccc(S(=O)(=O)N2CCC(C(=O)Nc3ccccc3C)CC2)c2cccnc12 reads -18%
# HPGD inh with Cc1cc(C)c(S(=O)(=O)N2CCCOC2CNC(=O)C(=O)NCc2cccs2)c(C)c1 (stereo not drawn) reads -12%
# HPGD inh with COc1ccc(OC)c(NC(=O)C2CCN(S(=O)(=O)c3cccs3)CC2)c1 reads -8%
# HPGD inh with CC(C)OC(=O)c1cccc(NC(=O)c2ccccc2)c1 reads -9%
# HPGD inh with CCc1ccc2nc(SCC(=O)N3CC(=O)Nc4ccccc43)c(C#N)cc2c1 reads -10%
# HPGD inh with O=C(O)Cc1ccc(-c2ccccc2)cc1 reads -19%&-10%

# The list goes on.
SMILES,HPGD inh
O=C(C1=C[C@@H]2[C@H]3C(=O)N(c4ccccc4Cl)C(=O)[C@H]3[C@@H](C(=O)c3ccc(Cl)cc3)N2C=C1)c1ccccc1,-20%
CCCCNC(=O)/C(=C/c1ccccc1)NC(C)=O,-7%
COc1cccc(/C=N/NC(=O)c2cccc([N+](=O)[O-])c2)c1OS(=O)(=O)c1ccc(C)cc1,-11%
C[C@@H](C(=O)Nc1ccc2ccccc2c1)[C@@H]1C[C@@]1(C)[C@@H](NC(=O)c1cnccn1)c1ccccc1,u
CC(/C=N/Nc1nc(C)cc(C)n1)=C\c1ccc(C(C)C)cc1,-11%
O=c1cnn(-c2ccccc2)c(-c2ccccc2)c1,-10%
CN(C)C(C(=O)NC1CCCCC1)c1ccc(Cl)cc1 (stereo not drawn),3%
N#Cc1c(-c2ccccc2Cl)cc(-c2ccccc2)nc1Br,25µM*
CS(=O)c1ccccc1-c1nc(-c2cc(C(F)(F)F)cc(C(F)(F)F)c2)no1 (stereo not drawn),u
CS(=O)(=O)N1CCN(C(=O)c2ccc(Br)s2)CC1,2%
O=C(COC(=O)c1cc(Cl)ccc1[N+](=O)[O-])NCc1ccc(Cl)cc1Cl,-14%
CCc1nnc(NS(=O)(=O)c2ccc(N=Cc3c(C)[nH]n(-c4ccc(Cl)cc4)c3=O)cc2)s1,u
O=S(=O)(NCC1CCCO1)c1ccc(S(=O)(=O)N(Cc2ccccn2)C2CC2)cc1 (stereo not drawn),-9%
O=C(Cc1ccccc1)Nc1c[nH]c(=O)[nH]c1=O,-15%
Cn1c(C(=O)O)c(CC(=O)NCc2cccnc2)c2ccccc21,u
O=C(CNC1CCCCCC1)c1cccs1,u
